GLA inh pH 4.5 – alpha-galactosidase A (human) inhibition, pH 4.5; purified enzyme, 4-MU-alpha-Gal fluorescence, pH 4.5; P06280; 230,000 tested, under 10 active; AID 1467; activity change, negative = inhibition, % at 105 µM; inconclusive = small, poorly fitted or top-dose-only inhibition, or a rising curve; inactive = flat fitted curve, though single readings scatter; no compound was filed as active;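 note: 0% = full activity with enzyme and -100% = basal without enzyme; dose as in the result columns while the protocol names 77 µM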
miR-21 reporter – raises the signal of a miR-21 reporter | HeLa miR-21 FLuc reporter, luciferase, 48 h | Potency, µM (top dose mostly 38.3 µM), without a hit: top-dose reporter change, positive = more light | 340,000 tested, under 10 active; active = well fitted rising curve with a large enough effect; inconclusive = small, poorly fitted or top-dose-only effect; inactive = no such curve, though single readings can be large or run the other way;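 note: % of control where 0% means no effect; miR-21 action dims this reporter so a rising signal means less miR-21 action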
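Compounds were titrated across several concentrations (up to approximately 40 uM) and incubated 48 hours with HeLa miR-21-FLuc reporter cells (miR-21 target sequence downstream of FLuc, endogenous miR-21). Readout was firefly luciferase luminescence after lytic detection reagent.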
Rango-impB inh – inhibitors of Rango-importin beta complex formation; Q14974; Rango CFP/YFP FRET sensor + importin beta, 45 min; Potency, µM (series often up to 92.2 µM), inactives show top-dose inhibition of complex formation; hit rate 0.031% among 340,000; AID 540263; active = rising FRET ratio curve, often small or poorly fitted; inconclusive = mostly compound fluorescence or quenching in the first reads; inactive = flat curves in all reads;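 note: potency is the fitted concentration of half-maximal effect; 0% = DMSO wells and 100% = buffer wells lacking importin beta; nearly all actives have a fitted effect of over 15% in size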
Target sequence (Q14974 whole entry, looked up): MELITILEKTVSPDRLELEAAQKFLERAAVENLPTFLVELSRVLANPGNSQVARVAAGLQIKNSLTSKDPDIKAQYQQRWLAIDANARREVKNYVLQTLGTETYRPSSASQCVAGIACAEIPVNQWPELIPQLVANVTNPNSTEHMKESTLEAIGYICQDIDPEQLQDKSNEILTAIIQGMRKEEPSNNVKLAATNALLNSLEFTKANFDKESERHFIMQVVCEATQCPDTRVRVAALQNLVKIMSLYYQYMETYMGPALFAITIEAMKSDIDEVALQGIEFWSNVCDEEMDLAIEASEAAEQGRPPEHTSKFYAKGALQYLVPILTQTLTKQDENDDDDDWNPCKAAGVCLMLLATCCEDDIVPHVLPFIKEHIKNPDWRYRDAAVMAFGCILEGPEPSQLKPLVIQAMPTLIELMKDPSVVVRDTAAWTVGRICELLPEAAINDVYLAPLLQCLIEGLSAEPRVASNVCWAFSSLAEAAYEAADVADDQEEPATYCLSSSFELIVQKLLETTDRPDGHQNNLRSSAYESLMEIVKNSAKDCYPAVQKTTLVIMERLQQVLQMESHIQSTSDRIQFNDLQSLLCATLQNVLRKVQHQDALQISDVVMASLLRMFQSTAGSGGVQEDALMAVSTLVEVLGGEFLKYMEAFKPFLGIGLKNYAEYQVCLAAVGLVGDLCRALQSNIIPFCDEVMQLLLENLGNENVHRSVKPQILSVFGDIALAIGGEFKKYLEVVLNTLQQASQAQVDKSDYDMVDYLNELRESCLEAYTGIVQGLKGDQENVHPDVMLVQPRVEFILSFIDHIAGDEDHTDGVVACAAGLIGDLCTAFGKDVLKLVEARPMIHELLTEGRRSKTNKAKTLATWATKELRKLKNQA
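FRET biosensor (snurportin 1 IBB flanked by EYFP and cerulean), 50 nM, with compound 5 min, then 0.125 microM importin beta in PBS, 1 mM DTT, 0.02% Tween-20, 0.1% BSA. CFP/YFP ratio read after 45 min at room temperature; pre-read flags interference.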
Rango dissoc inh – prevents RanGTP from dissociating the Rango-importin beta complex. O95149+P62826. Biochemical FRET Rango-importin beta, RanGTP-induced dissociation. Potency, µM (doses to about 46.1 µM), for the others: at the top dose activity change, negative = inhibition. hit rate 0.071% among 340,000; active means falling FRET ratio curve, often poorly fitted, with flat reads before Ran was added; inconclusive means other falling curves, or compound fluorescence or quenching; inactive means flat or rising ratio curve;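 note: potency is the fitted concentration of half-maximal effect; % of control where 0% means no effect; nearly all actives have a fitted effect of over 45% in size; -100% = wells without RanGTP and RCC1; the record marks most hits as doubtful in a second field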
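Rango (0.1 uM)–importin beta (0.25 uM) complex; RanGTP-RCC1 trigger; 45 min RT; CFP/YFP FRET read.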
* = called active by the depositor; ? = inconclusive; . = no result given. This is a subset; count on the stated rates, not on these rows.

SMILES | GLA inh pH 4.5 | miR-21 reporter | Rango-impB inh | Rango dissoc inh
O=C(NCCCO)C(=O)NCC1OCCCN1S(=O)(=O)c1cccs1 (stereo not given) | . | -3.6% | 0.0% | -8.7%
O=C(CSc1nc2ncc(Br)cc2[nH]1)Nc1ccc2c(c1)OCO2 | 4.3 | 13.8% | 1.9% | -13.6%
Cc1cccc(Cl)c1NC(=S)N1CCN(c2ccc([N+](=O)[O-])cn2)CC1 | -9.1 | -1.6% | -0.8% | 0.3%
CCCCC1C(=O)CC[C@H]2[C@@H]1CC(=O)[C@@H]2C/C=C\CCCC(=O)O (stereo not given in full) | -2.6 | -10.6% | -0.5% | -12.0%
CC1(C(=O)NCCc2c[nH]c3ccccc23)C=CC2(CCCCC2)N1C(=O)c1ccccc1 (stereo not given) | . | 9.2% | -0.6% | -14.6%
CN(Cc1cccc2ccccc12)C(=O)c1cc(COc2c(F)cccc2F)on1 | 1.3 | -7.0% | -4.2% | 11.3%
O=C(CCn1cccc1)Nc1ccc(F)cc1 | 5.2 | -4.3% | 2.2% | 0.8%
CCOC(=O)c1cc(S(=O)(=O)NCc2ccco2)cn1C | . | -0.2% | 0.1% | -13.7%
O=C(O)C1=C[C@@H](c2ccc(Br)cc2)C[C@@H](OCc2ccc(CO)cc2)O1 | -0.8 | -1.1% | -0.8% | -7.8%
O=C(Nc1cccc(F)c1)NC1(C(=O)N2CCOCC2)CCCCC1 | 2.0 | -1.9% | -4.9% | 4.2%
O=C(OCC(=O)N1CCCCC1)c1cc2ccccc2cc1O | 7.2 | -34.2% | 2.5% | 6.5%
CCCCCCOC(=O)C1=C(C)NC(=O)NC1c1ccc(O)cc1 (stereo not given) | 1.8 | -3.0% | -1.4% | 16.2%
COc1cc(Cl)c(CN2CCCC(CO)(Cc3ccccc3F)C2)cc1OC (stereo not given) | . | 11.2% | 0.5% | -7.4%
Cc1ccc(Cn2c(=O)c3c(nc4n3CCN4Cc3ccco3)n(C)c2=O)cc1 | -25.4 | -4.7% | -0.1% | -3.6%
O=C(NCCc1ccc(Cl)cc1Cl)c1cccnc1 | . | -10.6% | ? | 0.0%
N#Cc1ccc(-n2nnc3ccccc3c2=O)c([N+](=O)[O-])c1 | . | . | -2.3% | 0.0%
O=C(CSc1nc(-c2ccco2)cc(C(F)(F)F)n1)NC1CCCC1 | -7.3 | -4.8% | -6.3% | 5.7%
O=C(O)CC(NC(=O)Cc1ccccc1)c1cc([N+](=O)[O-])ccc1Cl (stereo not given) | 11.0 | 7.2% | -1.6% | 10.9%
CCCCC(=O)NC(c1ccccc1Cl)c1c(O)ccc2ccccc12 (stereo not given) | -4.0 | -7.0% | 1.8% | 4.6%
O=C(NC1CCCC1)C1CCCN(S(=O)(=O)c2cccc3cccnc23)C1 (stereo not given) | 8.7 | -8.6% | 10.0% | 17.1%
C/C(=N\Nc1nc(C(C)(C)C)cs1)c1ccc(O)cc1 | . | -44.6% | 4.1% | -13.8%
CNC(=O)C1CCN(S(=O)(=O)c2c(C)noc2/C=C/c2cccc(C)c2)CC1 | . | -0.6% | 0.6% | 9.3%
CS(=O)(=O)N1CCC(Oc2ccccc2C(=O)N2CCNC(=O)C2)CC1 | 5.7 | -4.7% | 0.4% | -7.6%
Cc1ccc(/C=C2\CCC(C3CCCC3)C2=O)cc1 (stereo not given) | 2.2 | -16.2% | -0.2% | 3.0%
COc1ccc(S(=O)(=O)n2oc(=O)cc2-c2ccccc2)cc1OC | -1.6 | -3.7% | 3.8% | 2.9%
NC(=O)C1(c2ccccc2)CCCN1C(=O)c1ccc(Br)cc1 (stereo not given) | -1.8 | 0.8% | -2.4% | -7.8%
Cc1ccccc1OCc1nc2ccccc2c(=O)n1/N=C/c1cccc([N+](=O)[O-])c1 | 0.2 | -31.4% | -1.7% | -2.5%
O=C(NCc1ccco1)c1cc2n(n1)C(C(F)(F)F)CC(c1ccc(F)cc1)N2 (stereo not given) | -0.2 | -9.4% | 6.1% | 8.0%
Cc1cc(C(=O)OCn2nnc3ccccc3c2=O)c(C)o1 | -0.4 | -4.8% | 4.5% | 8.2%
Cn1c(=O)n(C)c2cc(S(=O)(=O)NCCc3ccccc3)ccc21 | 0.2 | -3.9% | -5.2% | 0.2%

Arranged by formula weight (lowest first): some entries from above
SMILES | GLA inh pH 4.5 | miR-21 reporter | Rango-impB inh | Rango dissoc inh
C/C(=N\Nc1nc(C(C)(C)C)cs1)c1ccc(O)cc1 | . | -44.6% | 4.1% | -13.8%
N#Cc1ccc(-n2nnc3ccccc3c2=O)c([N+](=O)[O-])c1 | . | . | -2.3% | 0.0%
Cc1cc(C(=O)OCn2nnc3ccccc3c2=O)c(C)o1 | -0.4 | -4.8% | 4.5% | 8.2%
Cn1c(=O)n(C)c2cc(S(=O)(=O)NCCc3ccccc3)ccc21 | 0.2 | -3.9% | -5.2% | 0.2%
COc1ccc(S(=O)(=O)n2oc(=O)cc2-c2ccccc2)cc1OC | -1.6 | -3.7% | 3.8% | 2.9%
O=C(O)CC(NC(=O)Cc1ccccc1)c1cc([N+](=O)[O-])ccc1Cl (stereo not given) | 11.0 | 7.2% | -1.6% | 10.9%
CCCCC(=O)NC(c1ccccc1Cl)c1c(O)ccc2ccccc12 (stereo not given) | -4.0 | -7.0% | 1.8% | 4.6%
O=C(CSc1nc(-c2ccco2)cc(C(F)(F)F)n1)NC1CCCC1 | -7.3 | -4.8% | -6.3% | 5.7%
NC(=O)C1(c2ccccc2)CCCN1C(=O)c1ccc(Br)cc1 (stereo not given) | -1.8 | 0.8% | -2.4% | -7.8%
CS(=O)(=O)N1CCC(Oc2ccccc2C(=O)N2CCNC(=O)C2)CC1 | 5.7 | -4.7% | 0.4% | -7.6%
O=C(NC1CCCC1)C1CCCN(S(=O)(=O)c2cccc3cccnc23)C1 (stereo not given) | 8.7 | -8.6% | 10.0% | 17.1%
CNC(=O)C1CCN(S(=O)(=O)c2c(C)noc2/C=C/c2cccc(C)c2)CC1 | . | -0.6% | 0.6% | 9.3%
O=C(NCc1ccco1)c1cc2n(n1)C(C(F)(F)F)CC(c1ccc(F)cc1)N2 (stereo not given) | -0.2 | -9.4% | 6.1% | 8.0%

Next section.
SMILES | GLA inh pH 4.5 | miR-21 reporter | Rango-impB inh | Rango dissoc inh
CC(C)CC(OC(=O)c1ccc(Cl)nc1)C(=O)NC1CCCC1 (stereo not given) | . | -2.6% | -3.1% | -17.7%
O=C(CSc1ccc([N+](=O)[O-])cc1)Nc1cccc(S(=O)(=O)N2CCOCC2)c1 | . | . | -4.2% | -0.2%
CCOc1cc(CNc2ccccc2)cc(Br)c1OCc1ccc(F)cc1 | -5.9 | 12.7% | 0.0% | -1.2%
Cc1nn(-c2ccccc2)c(NC(=O)c2cccs2)c(-c2ccc(Cl)cc2)c1=O | -5.4 | -2.7% | -3.4% | -12.1%
Cc1nc2cc(NCc3cccs3)ccc2n1C | 4.5 | -54.4% | -0.6% | 18.2%
COc1cccc(-c2nc(CS(=O)(=O)CC(=O)NCCc3ccc(C)cc3)c(C)o2)c1 | . | 0.6% | 0.0% | -0.7%
N#CC1(c2ccccc2)CCCN1C(=O)c1ccccc1Br (stereo not given) | -4.5 | 2.5% | 0.5% | 2.0%
CCCCCn1nc(C)c(/C=N/NC(=O)c2ccoc2C)c1C | -8.0 | -46.4% | -3.6% | 11.4%
COc1ccccc1NC(=O)CS(=O)(=O)c1cn(CC(=O)N(C(C)C)C(C)C)c2ccccc12 | . | . | 3.1% | -0.3%
S=c1[nH]nc(Cc2cccc3ccccc23)n1-c1ccccc1 | -3.4 | -4.6% | ? | -14.5%
CCOC(=O)c1ccccc1NC(=O)C1CC(=O)N(C2CCCCC2)C1 (stereo not given) | . | -13.4% | -2.9% | -6.8%
CNC(=O)c1ncnnc1N(C)C(=O)NCc1ccccc1 | 3.2 | -6.1% | -0.9% | 14.8%
O/N=C(\COc1ccccc1O)c1ccccc1 | -1.0 | -18.8% | -5.2% | 5.3%
Cn1c(=O)[nH]c(=O)c2c1nc(Br)n2CCCCSc1nc2ccccc2o1 | 3.5 | 5.6% | 3.1% | 5.1%
COc1ccc(OC)c(C2CC(c3ccc(NS(C)(=O)=O)cc3)=NN2C(=O)c2ccccc2)c1 (stereo not given) | -1.5 | -12.3% | 0.5% | -8.9%
O=C(Nc1ccccc1C(=O)NCc1ccc(Cl)cc1)c1ccco1 | -2.6 | 20.1% | 0.6% | 13.3%
COc1ccc(OC)c(NC(=O)C(=O)NNC(=O)COc2ccc(Br)cc2C)c1 | 4.1 | 1.7% | 6.9% | 6.8%
CCc1ccccc1NC(=O)Nc1ccc2c(c1)OCO2 | 8.7 | -22.6% | -1.7% | -6.3%
COc1ccc(OC)c(NC(=O)CS(=O)(=O)c2cn(CC(=O)N3CCOCC3)c3ccccc23)c1 | . | -7.6% | -0.7% | 9.5%
C=CCn1c(O)c(N=NC(=O)CNC(=O)/C=C/c2ccco2)c2ccccc21 | -3.9 | -15.0% | -5.4% | 6.5%
O=C(NCc1cccc(Cl)c1)C1CCC(=O)N(CC2CCCCC2)C1 (stereo not given) | . | 1.6% | 0.4% | 16.9%
CCOC(=O)C1=C(O)C(=O)C(C(=O)OCC)C1 (stereo not given) | . | . | 3.1% | 24.2%
COc1ccc(-n2c(Cc3cc(=O)[nH]c(=O)[nH]3)nnc2SCC(=O)NC2CCCC2)cc1 | -7.8 | 0.7% | -1.9% | -16.1%
O=C(COC(=O)C1CC1)Nc1ncc(Cl)cc1Cl | . | . | 0.8% | 22.6%
COc1ccc(C(=O)N2CCNC(=O)C2CC(=O)Nc2cccc(Cl)c2Cl)cc1 (stereo not given) | . | -5.5% | -0.2% | -14.0%
O=C1NC2(CCCCC2)C(=O)N1c1cccc(Cl)c1 | . | -6.8% | 0.3% | -4.9%
C/C(Cc1ccccc1)=N\NC(=O)CNC(=O)Cc1ccc(Cl)cc1 | 3.0 | -1.9% | -1.0% | 1.1%
CCn1c(CNC(=O)c2ccc3c(c2)OCO3)nnc1SCC(=O)Nc1ccccc1F | . | 0.4% | 5.4% | 26.4%
COc1ccc(OCCCn2ccnc2)cc1 | . | 1.4% | 4.3% | -4.6%
O=C(NNc1cc(Cl)ccc1Cl)c1c(F)cccc1Cl | -0.6 | 1.3% | -0.2% | 3.2%
COc1ccc(N2CCN(CC(=O)N3N=CCC3c3ccccc3)CC2)cc1 (stereo not given) | -2.9 | 1.4% | 0.3% | -1.3%
CC(=O)Nc1ccc(SCCC2CCCCN2C)cc1 (stereo not given) | . | -14.2% | 4.4% | -9.4%
CCCCCCCN1C(Nc2ccccc2)=NC[C@@H]1C | . | . | 0.4% | -6.5%
COc1ccc(CNC(=O)CN2c3ccccc3S(=O)(=O)c3ccccc32)cc1 | . | 3.3% | -1.7% | -13.5%
CCc1cc2ccc(OC)cc2nc1SCC(=O)NNC(=O)c1ccco1 | ? | -11.7% | 2.0% | -0.2%
COc1ccc(-c2c([C@H]3[C@H]4C=CC[C@@H](C)[C@@H]4C(=O)N3Cc3ccccc3)ccc3ccccc23)cc1 | -1.6 | 25.3% | 0.1% | -4.9%
O=C(Nc1cccc(Cl)c1)c1cc(N=Nc2ccc([N+](=O)[O-])cc2Cl)ccc1O | -7.2 | -13.7% | -3.0% | -1.5%
Cc1cc(C)n2nc(SCC(=O)c3cc(C)n(CC4CCCO4)c3C)nc2n1 (stereo not given) | -8.8 | -1.2% | ? | 5.1%
Cc1c(N2C(=O)/C(=C/c3ccc(N(C)C)cc3)N(C)C2=S)c(=O)n(-c2ccccc2)n1C | . | . | 29.8% | -1.7%
CCCC(C)NC(=O)COC(=O)c1ccc(Cl)c(S(N)(=O)=O)c1 (stereo not given) | 3.0 | 0.1% | -2.6% | -22.4%
CN1CCN(C(=O)CCN2C(=O)/C(=C/c3ccc(F)cc3)SC2=S)CC1 | . | 1.4% | 6.1% | 3.1%
COc1cc(N/N=C/c2ccccc2O)ncn1 | 4.0 | -23.0% | 1.1% | 6.1%
CC(=O)Nc1ccc(NC(=O)CC(C)n2ccnc2)cc1 (stereo not given) | . | 0.7% | -1.6% | -14.3%

Screening results: PubChem, National Center for Advancing Translational Sciences (NCATS)
